Compound activity (PubChem)
Anaer choline gr: growth inhibitors of anaerobic choline-fed gram-negatives, minimal medium, absorbance. calls only. Gram-negative bacterium anaerobic choline minimal medium; hits give low values; many inactives read as strong as hits in the columns shown. AID 1963822, 2024. 55,000 tested, 0.2% active;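 active means growth z-score on choline under -2 at 7 or 20 h with little or no fall on glycerol, limits in tiers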;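 further: stock transfer was 300 nL into about 50 µL; the organism is E. coli; final concentration not given here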
Anaer choline gr early: recorded beside Anaer choline gr, whose call it bears; z-score; measured here: choline growth z-score, timepoint 1;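 score of optical density at 7 h as mean of two plates; lower means less growth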
* = called active by the depositor; i = inactive; & = joins results of further samples. A portion of the library (hit frequency here may not be typical).

SMILES	Anaer choline gr	Anaer choline gr early
CCOc1ccc(C2c3cccn3-c3sc4c(c3CN2C(=O)NC(C)C)CCCC4)cc1 (stereo not given)	i	1.17
O=C(O)c1cc(N2CCCC2)ccc1NS(=O)(=O)c1ccc(Cl)cc1	i	0.98
O=C(NCc1ccccn1)c1ccc2c(c1)N(Cc1ccccc1)CCS2	i	-0.77
CCCCN(CC)C(=O)c1ccc(Nc2ccnc(-c3cccc(C)c3)n2)cc1	i	2.17
NC(=O)c1cccc(N)c1	i	0.41&0.62&0.79
Cc1ccc(Cl)cc1NC(=O)CSc1cc(N2CCCCC2)ncn1	i	1.01
Cc1cc(C(=O)NC2CCCC2)c2cccc(-c3ccccc3)c2n1	i	-0.02
CC(Sc1nc2c(c(=O)[nH]1)CCCC2)C(=O)Nc1ccc(Cl)cc1 (stereo not given)	i	-0.73
COc1ccccc1-c1noc(CSc2ccc(-c3ccccc3F)nn2)n1	i	-0.41
Cc1ccc(-n2nnnc2CNC(=O)CC2CCCCC2)cc1C	i	1.15
Cc1nc(-c2csc(S(=O)(=O)Nc3cc(F)ccc3F)c2)no1	i	-0.46
CC(C)N(CCC(=O)N1CCNCC1)C(=O)c1ccc(Cl)cc1	i	-0.48
CC1Oc2ccccc2N(CC(=O)N2CCN(c3ccc(=O)n(-c4ccccc4)n3)CC2)C1=O (stereo not given)	i	0.57
Cc1ccc(-c2nccc(N3CCC(C(=O)NC(C)CCc4ccccc4)CC3)n2)cc1 (stereo not given)	i	0.3
Cc1nn(-c2ccc(-c3ccccc3)nn2)c(C)c1S(=O)(=O)N1CCC(C)CC1	i	-0.21
CN(Cc1ccccc1)Cc1cc(=O)n2[nH]c(-c3ccc(C(C)(C)C)cc3)nc2n1	i	-1.01
Cc1ccc2c(c1)C=C(C(=O)Nc1ncc(Cc3ccccc3)s1)C=CO2	i	-0.03
CCN1C(=O)c2cc(NS(=O)(=O)CC)ccc2Oc2ccccc21	i	0.59
O=C(NCc1ccc(Cl)cc1)c1ccc(S(=O)(=O)c2ccccc2)nc1	i	0.31
Cn1c(C(=O)Nc2ccc(F)cc2Cl)cc2c(=O)oc3ccccc3c21	i	2.08
CCOc1ccc(NC(=O)CSc2nnc3c4sc(N5CCCC5)nc4ncn23)cc1	i	-1.05
CN1CCN(c2oc(-c3ccccc3Cl)nc2S(=O)(=O)c2ccccc2)CC1	i	0.3
Cc1cc(C)c2c(n1)SCCN2C(=O)NCCC(=O)NCCN(C)C1CCCCC1	i	-0.5
CCNc1ncccc1-c1nc(-c2ccccc2)no1	i	1.69
COc1ccc(NC(=O)c2nnc(C3CCN(C(=O)Nc4ccc(Cl)cc4)CC3)s2)cc1	i	-0.88

Four consecutive records out of the list so far:
SMILES	Anaer choline gr	Anaer choline gr early
COc1ccccc1-c1noc(CSc2ccc(-c3ccccc3F)nn2)n1	i	-0.41
Cc1ccc(-n2nnnc2CNC(=O)CC2CCCCC2)cc1C	i	1.15
Cc1nc(-c2csc(S(=O)(=O)Nc3cc(F)ccc3F)c2)no1	i	-0.46
CC(C)N(CCC(=O)N1CCNCC1)C(=O)c1ccc(Cl)cc1	i	-0.48

Molecules from the list above with fluorine, in the order listed:
SMILES	Anaer choline gr	Anaer choline gr early
COc1ccccc1-c1noc(CSc2ccc(-c3ccccc3F)nn2)n1	i	-0.41
Cc1nc(-c2csc(S(=O)(=O)Nc3cc(F)ccc3F)c2)no1	i	-0.46
Cn1c(C(=O)Nc2ccc(F)cc2Cl)cc2c(=O)oc3ccccc3c21	i	2.08

Next entries:
SMILES	Anaer choline gr	Anaer choline gr early
O=S(=O)(NCCc1n[nH]c(Cc2ccccc2)n1)c1cccc(F)c1	i	-1.47
Cc1ccc(-c2noc(-c3ccccc3S(=O)(=O)N3CCC(C)CC3)n2)cc1	i	0.18
COc1ccc2cc3c(nc2c1)N(C(=O)C1CCCCC1)CC3	i	2.96
Cn1nc(-c2nnc(-c3ccc(F)cc3)o2)c2c1CCN(S(C)(=O)=O)C2	i	2.05
CCOC(=O)c1c(S(=O)(=O)N2CCC(C(=O)N3CCN(c4ccccc4F)CC3)CC2)c(C)n(C)c1C	i	0.13
O=C(NCCCN1CCCC1=O)c1ccc2ccnc(N3CCN(c4ccc(F)cc4)CC3)c2c1	i	0.02
COc1cccc(-c2ocnc2C(=O)NCc2ccccc2Cl)c1	i	0.82
CCOC(=O)c1c(NC(=O)C(C)Sc2nnc3[nH]c(=O)cc(C)n23)sc2c1CCC2 (stereo not given)	i	0.29
N[C@@H](Cn1ccc(=O)c(O)c1)C(=O)O	i	0.51
Cc1nn(C)c(C)c1CCNC(=O)Nc1ccccc1	i	-0.11
COc1cc(C=Cc2ccc(O)cc2)cc(OC)c1	i	0.49
COc1cccc(N2CCN(S(=O)(=O)c3cc(-c4cc(C(F)(F)F)[nH]n4)sc3C)CC2)c1	i	1.83
CCc1nc(-c2csc(S(=O)(=O)N3CCCC(C(=O)Nc4nccs4)C3)c2)no1 (stereo not given)	i	0.46
COc1ccc(-c2cc3nc(C)cc(NC(C)C)n3n2)cc1OC	i	1.73
N#Cc1c(NC(=O)CSc2ccccc2)sc2c1CCCC2	i	0.62
COc1ccc(Cl)cc1C(=O)Nc1cccc(N2CCCS2(=O)=O)c1	i	0.81
CC1CCN(S(=O)(=O)c2ccc3c(ccn3CC(=O)N3CCc4ccccc4C3)c2)CC1	i	-0.66
Cc1oc2ncn(CC(=O)N3CCC(C)CC3)c(=O)c2c1C	i	-0.78
COCCNC(=O)c1cc2occc2c(Nc2ccccc2)n1	i	0.85
COc1ccc(NC(=O)CCc2c(C)n(C)c3cc(-c4ccccc4OC)nn3c2=O)cc1OC	i	0.21
CC(=O)NCCc1nc2cc(NC(=O)COc3cccc(C)c3)ccc2n1C	i	-0.22
Cc1nnc(-c2ccc(S(=O)(=O)N3CCCC3)o2)o1	i	0.18
O=C(c1ccc(F)c(F)c1)N1CCN(S(=O)(=O)c2cc3c4c(c2)CCN4C(=O)CC3)CC1	i	0.06
CCCS(=O)(=O)c1ccc(NCCc2c[nH]c3ccc(OC)cc23)nn1	i	-0.07
NCCC1CCCC(CCN)N1 (stereo not given)	i	0.46
Additional results follow.
SMILES	Anaer choline gr	Anaer choline gr early
CCN(CC)C(=O)Cn1ccn2nc(-c3ccc(Cl)cc3)cc2c1=O	i	0.4
Cc1ccc(OCCSc2nc3ncnc(N)c3[nH]2)c(C(C)C)c1	i	-0.07
CCN1CCN(c2cc3c(cc2F)c(=O)c(C(=O)O)cn3C2CC2)CC1	i	-2.41&-2.71
CCOC(=O)c1cc2n(n1)CC(C)(C(=O)NC1CCC(C)CC1)N(c1ccc(Cl)cc1)C2=O (stereo not given)	i	-0.64
COc1cccc(C2CC(=O)Nc3c2c(C)nn3-c2ccc3nnc(C)n3n2)c1 (stereo not given)	i	1.1
CC(CCc1ccccc1)Nc1cc(C(C)C)nc2nc(-c3cccnc3)nn12 (stereo not given)	i	-1.17
COc1cccc(N2CCN(C(=O)C3CCCN(c4nc5ncccc5n5cccc45)C3)CC2)c1 (stereo not given)	i	-1.46
Cc1[nH]c(C(=O)N2CCN(c3cccc(Cl)c3)CC2)c(C)c1S(=O)(=O)N1CCC(C)CC1	i	0.17
COc1cc(Br)cc(CC2C(=O)N(C)c3ccccc32)c1OC (stereo not given)	i	0.11
CCOc1ccc(C(=O)Nc2sc3c(c2-c2nc4ccccc4s2)CCN(CC)C3)cc1	i	0.28
CCCc1nnc(NC(=O)c2cc(=O)c3cc(F)ccc3o2)s1	i	-1.12
CC(C)N1CCN(C(=O)CN2C(=O)C3CCCN3C(=O)c3cc(F)ccc32)CC1 (stereo not given)	i	-0.41
O=C(COc1ccc(Cl)cc1)N1CCC2(CC1)Nc1cc(F)ccc1-n1cccc12	i	-0.86
O=C(Nc1ccc(F)cc1)C1CCN(c2nc3ccccc3nc2C(F)(F)F)CC1	i	0.17
O=CC(O)C(O)C(O)C(O)CO (stereo not given)	i	0.55
COc1ccc(-n2nc(N3CCC(C(=O)NCc4cccnc4)CC3)ccc2=O)cc1	i	-0.35
Cc1csc(C2CCCN(C(=O)C3CC3)C2)n1 (stereo not given)	i	-0.22
O=C(CN1CCN(C(=O)c2ccc(Cl)cc2)CC1)Nc1nnc(-c2ccccc2)s1	i	-1.53
COc1ccc(C2C3=C(CC(C)(C)CC3=O)Nc3ccccc3N2C(=O)CCC(=O)O)cc1 (stereo not given)	i	-0.95
CC(C)OCCCNC(=O)Cc1csc2nc(-c3ccc(F)cc3)cn12	i	0.73
CN(CCCNC(=O)c1nc(-c2nn(-c3ccccc3)c(=O)n(C)c2=O)no1)C1CCCCC1	i	-0.75
COc1cc(OC)cc(-c2nc(-c3ccc4c(c3)Sc3ccccc3C(=O)N4C)no2)c1	i	-1.14
NC(=O)Cn1c(=O)n(CCc2nc(-c3ccccc3)no2)c(=O)c2ccccc21	i	-0.6
COC(=O)CSc1nnc2c(S(=O)(=O)N3CCN(c4ccc(F)cc4)CC3)cccn12	i	-0.06
O=C(CSc1nnc2ccc(C(=O)NCc3ccccc3)cn12)Nc1ccc2c(c1)OCCO2	i	-2.29
The listing continues.
SMILES	Anaer choline gr	Anaer choline gr early
Cc1ccc(-c2nn3c(=O)cc(CN4CCN(C(=O)c5ccc(Br)cc5)CC4)nc3s2)cc1	i	-0.34
O=C(CC1Nc2ccccc2NC1=O)NCc1ccccc1 (stereo not given)	i	-0.74
CN(Cc1cc(=O)[nH]c2ccccc12)C(=O)Nc1cccc(Cl)c1	i	-0.43
CCOc1ccc(C2Nn3c(CC)nnc3SC2C(=O)Nc2ccc(C)cc2C)cc1 (stereo not given)	i	-0.26
O=S(=O)(NCc1ccc(F)cc1)c1ccccc1-c1nc(-c2ccccc2)no1	i	-0.5
CCS(=O)(=O)c1ccc(-c2cccc(NC(=O)c3ccc(C)cc3)c2)nn1	i	0.61
CCCSc1nnc2c(n1)OC(c1ccc(Cl)cc1)Nc1ccccc1-2 (stereo not given)	i	0.27
COc1cc2c(cc1OC)CN([C@H]1CS(=O)(=O)C[C@@H]1S(=O)(=O)c1ccccc1)CC2	i	0.71
O=C(OCC1CCCO1)c1ccc2c(c1)N(Cc1ccccc1)C(=O)c1ccccc1S2 (stereo not given)	i	0.8
CCc1nnc(NC(=O)CSc2nnc3ccc(-c4ccccn4)nn23)s1	i	0.36
COc1ccccc1NC(=O)NCCn1c(C(F)(F)F)nc2cccnc21	i	-0.65
O=C(C1CCN(c2nc3ccccc3n3cccc23)CC1)N1CCc2ccccc2C1	i	0.84
Cc1ccc(CN(Cc2cc(=O)n3nc(C(C)C)sc3n2)CC(C)C)cc1	i	0.1
CCCCOc1ccc(NC(=O)c2cc(=O)c3cc(C)cc(C)c3o2)c2cccnc12	i	0.83
CC1(C)CC(=O)C2=C(C1)Nc1ccccc1N(C(=O)Nc1ccccc1)C2c1ccccc1 (stereo not given)	i	-0.36
O=C(COc1cc(-c2ccccc2)nc2ccccc12)Nc1ccc(Cl)cc1	i	0.23
CCn1cc(CN2CCCC2c2cc(C(C)C)on2)c2ccccc21 (stereo not given)	i	0.24
Oc1cccc(C2Nc3ccc(Br)cc3[C@H]3OCC[C@@H]23)c1 (stereo not given in full)	i	-1.6
c1ccc(-c2noc(-c3cc(N4CCSCC4)nc4ccccc34)n2)cc1	i	0.64
Cc1ccc2oc(C(=O)N3CCC(CCN4CCCCC4)CC3)cc(=O)c2c1	i	-0.93
CCOC(=O)c1[nH]c(C)c(S(=O)(=O)NCc2ccccn2)c1C	i	-0.85
COc1ccc(C2C3=C(CC(c4ccc(O)c(OC)c4)CC3=O)Nc3onc(C)c32)cc1 (stereo not given)	i	-0.44
Cc1ccc(-c2nc(C3CCN(S(=O)(=O)c4ccc(C(C)(C)C)cc4)CC3)no2)cc1	i	-0.39
O=C(Nc1cccc(Cl)c1)N1CCC2(CC1)Nc1ccccc1-n1cccc12	i	0.01
Cc1cccc(OCc2nc(CC(=O)Nc3ccc4c(c3)OCCO4)cs2)c1	i	1.54

In the list so far, these contain a furan ring, fused or not:
SMILES	Anaer choline gr	Anaer choline gr early
Cc1oc2ncn(CC(=O)N3CCC(C)CC3)c(=O)c2c1C	i	-0.78
COCCNC(=O)c1cc2occc2c(Nc2ccccc2)n1	i	0.85
Cc1nnc(-c2ccc(S(=O)(=O)N3CCCC3)o2)o1	i	0.18

(further entries)
SMILES	Anaer choline gr	Anaer choline gr early
CCCC(=O)N(Cc1ccc(Cl)cc1)c1nc2nc(C)c(C)c(=O)n2[nH]1	i	0.54
Clc1cccc(-c2noc(Cc3nc(-c4ccccc4)cs3)n2)c1	i	0.26
CC(=O)Nc1ccc(C(=O)N(CCC2=CCCCC2)C2(C(=O)NCc3ccccc3)CCN(C(C)=O)CC2)cc1	i	-0.61
O=C(c1c(F)cccc1F)N1CC(OCc2ccc(F)cc2Cl)C1	i	-1.61
CN(C)CCC(c1ccc(Br)cc1)c1ccccn1 (stereo not given)	i	0&0.18&-1.55&-0.02
CCOc1ccc(NC(=O)C(CC)Sc2nnc(-c3cc(C)ccc3NC(C)=O)c(=O)[nH]2)cc1 (stereo not given)	i	-0.43
Cc1ccc(S(=O)(=O)N2CCOCC2)cc1-c1nnc(-c2ccccc2)o1	i	0.53
CC1(C(=O)NC2CCCCC2)Cn2c(cc3sccc32)C(=O)N1C1CCCC1 (stereo not given)	i	0.86
O=C(Nc1ccccc1)c1nnc(COCC(=O)N2CCN(C3CCCCC3)CC2)s1	i	-0.51
CC(C)NC(=O)C1CCN(C(=O)Nc2ccc(S(=O)(=O)N3CCOCC3)s2)CC1	i	-0.69
CCn1c(=O)n(Cc2cccnc2)c(=O)c2cnc(-c3ccc(Cl)cc3)nc21	i	-0.48
O=S1(=O)C[C@H](NC2CCCCCC2)[C@@H](S(=O)(=O)c2ccc(F)cc2)C1	i	-0.89
Cc1cc(C)n2nc(CN(C(=O)C3CCCCC3)c3ccccc3)nc2n1	i	-0.42
